Bioassay records (PubChem BioAssay)
GPR35 antagonists – GPR35 antagonists blocking zaprinast-driven arrestin recruitment, primary screen, imaging, U2OS, beta-arrestin-GFP, zaprinast agonist (AID 2058); hit rate 0.052% among 290,000; inhibition, % at 10 µM, or IC50 in µM where a hit was titrated; U2OS GPR35 beta-arrestin-GFP translocation imaging, zaprinast antagonism; higher % means a stronger effect;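 active means inhibition of at least 50% with at least 30 cells and total cytoplasm GFP at most 10,000,000; inconclusive means under 30 cells or total GFP of 10,000,000 plus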
Dengue-2 NS5 capping – flavivirus cap methylation enzyme inhibition – biochemical, confirmation dose response, primary screen (AID 588689). Dengue-2 NS5 methyltransferase capping enzyme assay, biochemical; higher % means a stronger effect. inhibition, % at 25 µM, or IC50 in µM where a hit was titrated. hit rate 0.3% among 340,000; in the data active means a potency from the dose series; inconclusive means inhibition above about 29% without an active follow-up result
GPR55 antagonists – GPR55 antagonists blocking LPI-driven arrestin recruitment, primary screen, imaging, U2OS, beta-arrestin-GFP, LPI agonist (AID 2013); hit rate 0.13% among 290,000; U2OS GPR55 beta-arrestin-GFP translocation imaging, LPI antagonism; higher % means a stronger effect; inhibition, % at 10 µM, or IC50 in µM where a hit was titrated;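 active means spots per cell inhibited over 60%, with over 100 cells counted and total cytoplasm intensity under 500,000; inconclusive means wells with under 100 cells, flagged as likely toxic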;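 further: U2OS cells stably carrying GPR55 and arrestin-GFP stimulated by 5 µM LPI near EC80; imaged beta-arrestin-GFP aggregate spots per cell after agonist stimulation; plate controls were LPI-stimulated DMSO wells for no effect and DMSO wells without LPI for full effect; some results filed as inactive read as strong as hits; confirmed hits need IC50 under 10 µM and bright autofluorescent wells are also inconclusive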
GPR55 activation – selective activators of receptor GPR55 – imaging, U2OS cells, beta-arrestin-GFP redistribution, primary screen (AID 1961); U2OS GPR55 beta-arrestin-GFP redistribution imaging; higher % means a stronger effect; activation, % at 10 µM; hits with a dose series show EC50 in µM; hit rate 0.048% among 290,000;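 active means activation above 40% with more than 50 cells counted in the well; inconclusive means wells holding fewer than 50 cells, flagged as toxic or sparse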;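 further: U2OS osteosarcoma cells stably expressing GPR55 and beta-arrestin-GFP; plate controls were DMSO negative control for no effect and LPI positive control for full effect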
NOD1 NF-kB reporter – NOD1 signaling inhibitors, primary screen, cell-based, luminescence, uHTS (AID 1578) | inhibition, % at 4 µM; hits with a dose series show EC50 in µM | NOD1-driven NF-kB luciferase reporter cells, luminescence; higher % means a stronger effect | hit rate 1% among 290,000; in the data active means inhibition mostly above about 36%, no sharp cut-off; inactive means mostly below about 34%;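 further: HEK-293T reporter cells stimulated with the NOD1 agonist gamma-tri-DAP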
* = called active by the depositor; ? = inconclusive; . = no result given; & = joins results of further samples. Not all compounds are listed. The share of hits here may be higher or lower than overall.

SMILES	GPR35 antagonists	Dengue-2 NS5 capping	GPR55 antagonists	GPR55 activation	NOD1 NF-kB reporter
COc1cc(CNC(=O)CCCC/C=C/C(C)C)ccc1O	.	-1%	.	.	.
Cc1cccc(N2CCN(C(=O)c3cc4c(=O)n(C)c5ccccc5c4n3C)CC2C)c1 (stereo unspecified)	-5%	.	-1%	-0.2%	11%
CC(=O)c1nc2ccccc2n1S(=O)(=O)c1ccc(Cl)cc1	7%	-2%	10%	0.0%	-2%
c1ccc(-c2ccc(C(c3ccccc3)n3ccnc3)cc2)cc1 (stereo unspecified)	2%&-26%	-4%	4%&5%	-0.1%&-0.5%	7%&-6%
CC(C)(C#N)c1cc(Cn2cncn2)cc(C(C)(C)C#N)c1	-6%	.	-11%	-0.5%	-4%
CC(=O)O[C@H]1C(=O)[C@@]2(C)[C@H]([C@H](OC(=O)c3ccccc3)[C@]3(O)C[C@H](OC(=O)[C@H](O)C(NC(=O)c4ccccc4)c4ccccc4)C(C)=C1C3(C)C)[C@]1(OC(C)=O)CO[C@@H]1C[C@@H]2O (stereo partly specified)	3%	-8%	-20%	-0.1%	-6%
Nc1ccn([C@@H]2O[C@H](CO)[C@@H](O)C2O)c(=O)n1 (stereo partly specified)	-3%	-2%	11%	-0.1%	-11%
Cn1cnc2c1c(=O)[nH]c(=O)n2C	2%	.	-7%	-0.1%	-5%
CN/C(=C/[N+](=O)[O-])NCCSCc1ccc(CN(C)C)o1	-4%	-4%	-4%	0.5%	-26%
NS(=O)(=O)c1ccc(NC(=O)Nc2ccc(C(F)(F)F)cc2)cc1	18%	.	1%	0.2%	1%

In the list so far, 3 contain sulfur:
SMILES	GPR35 antagonists	Dengue-2 NS5 capping	GPR55 antagonists	GPR55 activation	NOD1 NF-kB reporter
CC(=O)c1nc2ccccc2n1S(=O)(=O)c1ccc(Cl)cc1	7%	-2%	10%	0.0%	-2%
CN/C(=C/[N+](=O)[O-])NCCSCc1ccc(CN(C)C)o1	-4%	-4%	-4%	0.5%	-26%
NS(=O)(=O)c1ccc(NC(=O)Nc2ccc(C(F)(F)F)cc2)cc1	18%	.	1%	0.2%	1%

Rewritten with each value named: part of the list above.
> CC(=O)c1nc2ccccc2n1S(=O)(=O)c1ccc(Cl)cc1
  GPR35 antagonists: 7% | Dengue-2 NS5 capping: -2% | GPR55 antagonists: 10% | GPR55 activation: 0.0% | NOD1 NF-kB reporter: -2%

> NS(=O)(=O)c1ccc(NC(=O)Nc2ccc(C(F)(F)F)cc2)cc1
  GPR35 antagonists: 18% | Dengue-2 NS5 capping: . | GPR55 antagonists: 1% | GPR55 activation: 0.2% | NOD1 NF-kB reporter: 1%

> Nc1ccn([C@@H]2O[C@H](CO)[C@@H](O)C2O)c(=O)n1 (stereo partly specified)
  GPR35 antagonists: -3% | Dengue-2 NS5 capping: -2% | GPR55 antagonists: 11% | GPR55 activation: -0.1% | NOD1 NF-kB reporter: -11%

> c1ccc(-c2ccc(C(c3ccccc3)n3ccnc3)cc2)cc1 (stereo unspecified)
  GPR35 antagonists: 2%&-26% | Dengue-2 NS5 capping: -4% | GPR55 antagonists: 4%&5% | GPR55 activation: -0.1%&-0.5% | NOD1 NF-kB reporter: 7%&-6%

(cont.)
SMILES	GPR35 antagonists	Dengue-2 NS5 capping	GPR55 antagonists	GPR55 activation	NOD1 NF-kB reporter
NS(=O)(=O)c1ccc(NC(=O)Nc2ccccc2)cc1	10%	-18%	-6%	-0.2%	-5%
O=C(N/N=C/c1ccccn1)c1cc(Br)ccc1O	-1%	6%	6%	-0.2%	-8%
N#Cc1c(-c2cccc(Br)c2)cc(-c2ccco2)[nH]c1=O	-2%	?	6%	-0.1%	31%
COc1cc(CNC(=O)CCCC/C=C\C(C)C)ccc1O	-6%	.	7%	-0.5%	-2%
CCCCNC(=O)NS(=O)(=O)c1ccc(C)cc1	-5%	-1%	1%	0.5%	-17%

Sorted by length of the SMILES (ascending): three of the compounds above
SMILES	GPR35 antagonists	Dengue-2 NS5 capping	GPR55 antagonists	GPR55 activation	NOD1 NF-kB reporter
CCCCNC(=O)NS(=O)(=O)c1ccc(C)cc1	-5%	-1%	1%	0.5%	-17%
O=C(N/N=C/c1ccccn1)c1cc(Br)ccc1O	-1%	6%	6%	-0.2%	-8%
NS(=O)(=O)c1ccc(NC(=O)Nc2ccc(C(F)(F)F)cc2)cc1	18%	.	1%	0.2%	1%
